StopGo RLuc: FMDV 2A StopGo reporter, Renilla signal | HEK cells with a luciferase reporter of 2A StopGo recoding | Potency, µM (highest dose often 57.5 µM), without a hit: at the highest dose signal change, negative = less light | actives 0.32% (n = 120,000); active means well fitted falling curve with a large enough effect; inconclusive means small, poorly fitted or top-dose-only effect; inactive means no such curve, though single readings can be large or run the other way; further: nearly all actives have a fitted effect of over 55% in size; overnight with compound
StopGo FLuc: FMDV 2A StopGo reporter, firefly signal; HEK cells with a luciferase reporter of 2A StopGo recoding; Potency, µM (doses to about 57.5 µM), inactives show at the highest dose signal change, negative = less light; actives 0.23% (n = 120,000); active = well fitted falling curve with a large enough effect; inconclusive = small, poorly fitted or top-dose-only effect; inactive = no such curve, though single readings can be large or run the other way; further: nearly all actives have a fitted effect of over 60% in size; overnight with compound
* hit, by the source's call; u = inconclusive; & = joins results of further samples; [ ] = another dose, or the depositor's remark. On the % scale 0 is the no-effect control and ±100 the full control effect; potency means the concentration at half of the fitted maximal effect. An excerpt, so the mix of outcomes need not match the whole.

SMILES | StopGo RLuc | StopGo FLuc
COC(=O)c1c(C)nn(-c2ccc(F)cc2)c1-n1cccc1 | 6% | 0%
CC(=O)Nc1ccccc1NC(=O)CN(C)S(=O)(=O)c1ccccc1 | -10% | 1%
CN(C)S(=O)(=O)NC(=O)c1cc(Br)ccc1F | -3% | -5%
COc1cccc(CSc2nc3cc(C(=O)NC4CCCC4)ccc3c(=O)n2Cc2ccccc2)c1 | u | u
CCOCCCNC(=O)c1ccc2c(c1)NC(=O)C(CS(=O)(=O)Cc1ccc(F)cc1Cl)N2 (stereo not given) | -18% | 8%
CCOc1ccc(C(=O)Nc2cccc3ccc(C)nc23)cc1 | -10% | -3%
COc1ccc(OC)c(NS(=O)(=O)c2ccc(-n3cccn3)cc2)c1 | 331%[activator] | 49%[activator]
Cc1cc(C)cc(OCCN)c1 | -2% | -2%
CCOC(=O)c1nc(Nc2ccc(C(C)=O)cc2)c2ccccc2n1 | 40%[activator] | 83%[activator]
O=C(Nc1nn(Cc2ccc(F)cc2)cc1Cl)c1nc2ncccn2n1 | -2% | 0%
C=CCOc1ccc(/C=C2\N=C(SC)SC2=O)cc1 | 2% | 1%
CC(C)CN(CCCNC(=O)c1cc(-c2ccc(Br)s2)nc2ccccc12)CC(C)C | -12% | -2%
COc1ccc(Cl)cc1NC(=O)[C@H]1C[C@H](CCC(N)=O)N[C@]12C(=O)Nc1c(C)cc(Cl)cc12 | 14% | 3%
COc1ccc(-c2nc3sc(CCNC(=O)C(=O)Nc4ccccc4C#N)c(C)n3n2)cc1 | -9% | 17%
Cc1ccc(CN(Cc2ccco2)C(=O)COc2ccc(C(C)C)cc2)cc1 | -1% | -17%
Cc1ccc(CNC(=O)CSc2nc3ccsc3c(=O)n2Cc2ccccc2F)cc1 | 49%[activator] | 32%
CC(NC(=O)c1ccc(Cl)cc1)c1nnc(SCC(=O)c2ccccc2)n1C (stereo not given) | 5% | 30%
CCN(C(=O)Cn1nc(C(=O)O)c2ccccc2c1=O)c1ccccc1 | 1% | -5%
CCc1ccc(C(=O)c2ccccc2C(=O)O)cc1 | 18% | 33%[activator]
COc1ccc(C(=O)N2CCN(c3nc4nc(C)ccc4o3)CC2)cc1C#N | -8% | 0%
CCOc1ccc(NC(=O)[C@H]2O[C@@H]3OC(C)(C)O[C@@H]3[C@H]3OC(C)(C)O[C@H]32)cc1 | -13% | -19%
O=C(c1ccc2c(c1)N(Cc1ccccc1F)C(=O)c1ccccc1S2(=O)=O)N1CCCCCC1 | 271%[activator] | -5%
CCOC(=O)c1[nH]c(C)c(C(=O)Nc2cccc(Cl)c2)c1C | 39%[activator] | 103%[activator]
CCCNC(=O)NC(=O)CSc1nc(-c2ccco2)nc2ccccc12 | -9% | 20%
O=C(NCc1ccccc1)Nc1c(NC2CCCC2)c2ccccc2oc1=O | -1% | -8%
(further entries)
SMILES | StopGo RLuc | StopGo FLuc
COc1ccc(NC(=O)c2cnc(N3CCCCC3)c3ccccc23)cc1Cl | u | u
COc1ccc2c(c1)CC(NC(=O)Nc1c(C)cc(C)cc1C)CO2 (stereo not given) | 13% | 3%
Cc1cccc(N2NC3(CCCC(C)C3)NC2=S)c1C (stereo not given) | 4% | 15%
CCCn1nc(C(=O)Nc2ccc3c(c2)OCO3)c2ccccc2c1=O | 13% | 0%
COc1ccc(Oc2nc3c(c(=O)n(Cc4ccccc4Cl)c(=O)n3C)n2C)cc1 | -11% | -13%
CC(NC(=O)/C=C/c1cccs1)C12CC3CC(CC(C3)C1)C2 (stereo not given) | 10% | -11%
O=C(NCCCl)c1ccc2ccccc2n1 | 9% | 0%
CC(O)CNC(=O)NCCc1ccc(S(N)(=O)=O)cc1 (stereo not given) | 0% | -2%
CN1C(=O)C2(C(C#N)=C(N)N(c3ccccc3)C3=C2C(=O)OC3)c2ccccc21 (stereo not given) | u | -17%
COC(=O)c1ccc(Cl)cc1NC(=O)Nc1nnc(N2CCCC2)s1 | -18% | -3%
CNC(=O)CCc1cn(Cc2ccccc2C)c2ccccc12 | 0% | 4%
COc1ccc(-c2cc(Nc3cccc(OC)c3)nc(C)n2)cc1 | 1% | 178%[activator]
O=[N+]([O-])c1ccc(-c2nc(Nc3ccc(I)cc3)c3ccccc3n2)cc1 | -5% | 5%
c1ccc(-c2nc3cnccn3c2Nc2ccc3c(c2)OCCO3)cc1 | 3% | 25%
COc1cc(C(=O)N2CCN(c3ncccn3)CC2)cc(Cl)c1OC | 15% | 0%
Cc1ccc2nc(C)cc(C(=O)OC(C)C(=O)NC3CCCC3)c2c1 (stereo not given) | 5% | 11%
CC(NC(=O)c1cc(Cl)nc(Cl)c1)C1CC2CCC1C2 (stereo not given) | -7% | -1%
Cc1nc(Oc2cccc(F)c2)c2c3c(sc2n1)CCC3 | 1% | -1%
COc1ccc(-c2cn3cccnc3n2)cc1NC(=O)COc1ccccc1 | 21% | 36%[activator]
CC(C(=O)NC1CCCCC1)N1CCN(Cc2ccc(C(F)(F)F)cc2)CC1 (stereo not given) | u | u
C[n+]1c2cc(N)ccc2cc2ccc(N)cc21 (tested in a mixture with another compound) | u | 5%[11.5 µM]
Cc1cc(C)cc(NS(=O)(=O)c2ccc3oc(=O)ccc3c2)c1 | 304%[activator] | -4%
CN(Cc1ccsc1)C(=O)CSc1nnc(COc2ccccc2Cl)n1C | 80%[activator] | 0%
Cc1ccccc1C(=O)Nc1ccc(Cl)c(C(F)(F)F)c1 | 13% | 188%[activator]
CCN(CC)S(=O)(=O)c1ccc(NC(=O)[C@H](CCSC)N2Cc3ccccc3C2=O)cc1 | 35%[activator] | -5%

Given comma-delimited: part of the list above
structure,StopGo RLuc,StopGo FLuc
CN1C(=O)C2(C(C#N)=C(N)N(c3ccccc3)C3=C2C(=O)OC3)c2ccccc21 (stereo not given),u,-17%
COC(=O)c1ccc(Cl)cc1NC(=O)Nc1nnc(N2CCCC2)s1,-18%,-3%
CNC(=O)CCc1cn(Cc2ccccc2C)c2ccccc12,0%,4%
COc1ccc(-c2cc(Nc3cccc(OC)c3)nc(C)n2)cc1,1%,178%[activator]
O=[N+]([O-])c1ccc(-c2nc(Nc3ccc(I)cc3)c3ccccc3n2)cc1,-5%,5%
c1ccc(-c2nc3cnccn3c2Nc2ccc3c(c2)OCCO3)cc1,3%,25%

Additional compounds follow.
SMILES | StopGo RLuc | StopGo FLuc
Cc1cc(-n2c(SCC(=O)NCc3ccccc3)nc3ccsc3c2=O)ccc1Cl | -6% | -23%
COc1ccc2c(CN3CCCCC3)cc(=O)oc2c1 | 1% | 109%[activator]
CC(=O)NCc1ccc(C(=O)NCC2(c3ccccc3)CCCCC2)cc1 | 3% | -9%
Cc1ccc(-c2cnc(CCC(=O)NCc3ccccc3)o2)cc1C | 0% | 19%
CC(=O)N(CC(O)CO)c1c(I)c(C(=O)NCCO)c(I)c(C(=O)NCC(O)CO)c1I (stereo not given) | -10% | -3%
COc1cccc(CN2CCC(C(O)(c3ccccc3)c3ccccc3)CC2)c1OC | 16%[1.06 µM] | u
CCOc1c(Br)cc(/C=C/C(=O)c2ccccc2)cc1OC | 26% | 0%
O=C(CCc1ncc(-c2ccc(F)cc2)o1)NCCN1CCOCC1 | -3% | 6%
O=C(CC1C(=O)OCCN1Cc1ccccc1)Nc1ccc(F)c(F)c1 (stereo not given) | 88%[activator] | 5%
CCS(=O)(=O)Nc1ccc(C2=NN(C(=O)c3ccco3)C(c3ccc(OC)cc3)C2)cc1 (stereo not given) | 5% | -6%
Cc1cccc(C(=O)Nc2ccc3nc(SCc4ccc(I)cc4)sc3c2)c1 | -3% | 10%
CCC(=O)NC(c1ccc(OC)c(OC)c1)c1nccc2cc(OC)c(OC)cc12 (stereo not given) | 10% | 7%
COc1ccc(Cl)cc1S(=O)(=O)N1CCN(CC(=O)Nc2ccccc2C(F)(F)F)CC1 | 0% | -15%
Cc1cc(C(=O)Nc2ccc(C(C)C)cc2)c2c(C)nn(-c3ccccc3)c2n1 | -11% | -18%
Cc1cccc(/C=C/C(=O)c2cc3ccccc3o2)c1 | -1%[1.06 µM] | 29%
O=C(COc1coc(CN2CCCCC2)cc1=O)NCc1ccccc1F | -11% | 2%
Cc1ccc(OCC(=O)NNC(=S)NC(=O)COc2ccccc2)cc1 | -6% | 0%
C=CCN(Cc1ccc(F)cc1)C1CCCC1 | 5% | -4%
COc1ccc(C2C(=O)N(C3CCCCCC3)CC(=O)N2CCc2ccccc2)cc1 (stereo not given) | -11% | 71%[activator]
Nc1ccccc1OCc1cccnc1 | 6% | 0%
Cc1ccsc1/C=C/C1=Cc2c(sc(N)c2C#N)C(C)(C)C1 | 10% | 10%
COCCCn1c(C)cc(C(=O)CN2C(=O)NC(Cc3c[nH]c4ccccc34)C2=O)c1C (stereo not given) | -19% | -17%
COc1ccc(CNC(=O)C2CCN(c3nnc(-n4cccc4CNc4ccc(C)cc4)s3)CC2)c(OC)c1 | -2% | 5%
CCCCSc1ncnc2c1c(-c1ccccc1)cn2-c1cccc(F)c1 | -9% | 1%
CCNS(=O)(=O)c1cccc(C(=O)Nc2cccc3ncccc23)c1 | 87%[activator] | 4%

Profiles as entered above:
C=CCN(Cc1ccc(F)cc1)C1CCCC1 as listed: StopGo RLuc = 5%; StopGo FLuc = -4%
Nc1ccccc1OCc1cccnc1 as listed: StopGo RLuc = 6%; StopGo FLuc = 0%

Compounds above containing an NH in an aromatic ring, in the order listed:
SMILES | StopGo RLuc | StopGo FLuc
CCOC(=O)c1[nH]c(C)c(C(=O)Nc2cccc(Cl)c2)c1C | 39%[activator] | 103%[activator]
COCCCn1c(C)cc(C(=O)CN2C(=O)NC(Cc3c[nH]c4ccccc34)C2=O)c1C (stereo not given) | -19% | -17%

(continued)
SMILES | StopGo RLuc | StopGo FLuc
Cc1ccccc1-n1c(=O)c2ccccc2n(Cc2ccc(F)cc2)c1=O | 2% | -11%
O=C1CC(c2ccc(F)cc2)c2c(c3ccccc3oc2=O)O1 (stereo not given) | -13% | -15%
Cc1nn(C(C)C)c(C)c1N | 3% | 5%
COc1cc(C2C(C#N)=C(N)Oc3n[nH]c(C)c32)cc(Br)c1OCc1ccccc1 (stereo not given) | 23% | 22%
Cc1ccn2c(Nc3ccccc3C)c(-c3cccnc3)nc2c1 | -13% | -13%
Cc1ccc(OC(=O)CSc2nnc(-c3cccs3)o2)cc1 | -12% | -22%
O=C(NCCc1csc(-c2cccnc2)n1)c1ccc(F)c(F)c1 | 8% | 46%[activator]
O=C1CSC(c2cccc(C(F)(F)F)c2)N1c1cccc(F)c1 (stereo not given) | 0% | 0%
CSc1ccc(CN(C)C(=O)/C=C/c2cccs2)cc1 | 0% | 0%
COc1ccc2cc(C(=O)NCC3COc4ccccc4O3)c(C)nc2c1 (stereo not given) | 3% | 22%
CCc1nnc(SCc2nc(-c3ccc(OC)cc3)oc2C)c2cc3sccc3n12 | -9% | 1%
COc1cc(F)ccc1NS(=O)(=O)c1cc(C(=O)O)ccc1OC | 9% | -11%
O=C(CSc1ccccc1)N1CCc2c([nH]c3ccccc23)C1c1ccc(Cl)cc1 (stereo not given) | 2% | u
Cc1nnc(NC(=O)c2nc(SC(C)C)ncc2Cl)s1 | -2% | -13%
CC(C)NC(=O)CN(C)CC(O)COc1ccccc1F (stereo not given) | -16% | -9%
CCOC(=O)C1=C(CN2CCN(c3ccccc3F)CC2)NC(=O)NC1c1ccc(Cl)cc1 (stereo not given) | -5% | -12%
O=C(CCn1nc(-c2ccccc2)c2ccccc2c1=O)N1CCCC1 | 11% | 9%
CCOC(=O)CNC(=O)CSc1cn(CC(=O)N2CCCCCC2)c2ccccc12 | 4%&5% | 1%&-5%
Cc1ccccc1C(=O)NCc1coc(-c2cccs2)n1 | 9% | 53%[activator]
O=C(Cn1cc(/C=C2\NC(=O)NC2=O)c2ccccc21)Nc1ccccc1 | 1% | 2%
CC(C)(C)c1ccc(C(=O)Cn2nc(C(=O)O)c3ccccc3c2=O)cc1 | 4% | 16%
Cc1cc(Nc2ccc(Cl)cc2C)nc(-n2nc(C)cc2C)n1 | 6% | -3%
COc1cc(-c2nnc(SCCOc3cc(C)cc(C)c3)o2)cc(OC)c1OC | -6% | -1%
Cc1ccc(CCNC(=O)c2cc3sccc3n2Cc2ccc(C)cc2)cc1 | -12% | -23%
CCN(CC(=O)NC)C(=O)CCc1ncc(-c2ccc(Cl)cc2)o1 | -5% | 132%[activator]
CCC1(c2cccc(O)c2)CCCCN(C)C1 (stereo not given) | -7% | -8%
O=C(Nc1cccc(Cl)c1)c1nnc(C(=O)N2CCC(C(=O)NCCN3CCCC3)CC2)s1 | -4% | -2%
Cn1nc(C(=O)OCCOc2cccc(Cl)c2)c2ccccc2c1=O | 6% | 10%

Screening data as filed in PubChem BioAssay.
